Sa growth inh: inhibitors of Staphylococcus aureus growth at 42 °C. S. aureus RN4220 growth, OD600, 20 h; active compounds read low. relative growth, % (test concentration not listed). 0.53% of 170,000 active;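 active means growth at 42 °C up to 50% and 20 or more points under that at 30 °C, or under 10% at both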;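 further: 300 nL library stock went into each well; scaled to the means of positive and negative controls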
GIV Gai3 FP: blocks GIV peptide binding to rat Galpha-i3; Galpha-i3/FITC-GIV peptide fluorescence polarization, 90 min; active compounds read low; scaled: aluminum fluoride 0%, vehicle 100%; percent of control (FP), % (no concentration beside the values); 0.42% of 210,000 active;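 active means replicate mean at 85% of control or lower, very high polarization wells dropped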;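 further: wells of about 15 µL received 100 nL stock; the first replicate is given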
Target sequence (P08753 whole entry, looked up): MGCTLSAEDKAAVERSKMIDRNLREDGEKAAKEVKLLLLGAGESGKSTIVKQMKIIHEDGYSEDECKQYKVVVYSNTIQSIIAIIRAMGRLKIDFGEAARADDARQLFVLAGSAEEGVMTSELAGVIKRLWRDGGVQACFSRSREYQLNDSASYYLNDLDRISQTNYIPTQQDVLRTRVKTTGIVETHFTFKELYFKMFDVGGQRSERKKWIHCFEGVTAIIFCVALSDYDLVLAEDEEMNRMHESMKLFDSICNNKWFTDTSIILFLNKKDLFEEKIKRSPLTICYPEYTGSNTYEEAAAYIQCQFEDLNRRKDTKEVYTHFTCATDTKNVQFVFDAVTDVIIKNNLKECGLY
HCMV UL50-53 inh: disrupts HCMV UL50-UL53 complex binding. HTRF UL50-UL53 interaction, normalized percent inhibition. inhibition, % (test concentration not listed). AID 1918969. 0.15% of 190,000 active;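 active means both replicates at 50% or more, plus weaker picks with an unusually low signal ratio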;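 further: stock transfer was 100 nL into about 20 µL; 0% = negative control wells and 100% = wells with untagged competitor protein; inactives centre near -12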
Sa growth inh second temp: also measured in Sa growth inh; calls as there; relative growth, %; measured here: growth at 30 °C;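 optical density after 20 h as mean of two plates; 100% = untreated growth and lower means inhibition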
Active calls of the source: *; · = not tested or not shown; & = joins results of further samples.

Every second line gives: Sa growth inh, Sa growth inh second temp, GIV Gai3 FP, HCMV UL50-53 inh
CC(C)CCSc1nc2ccccc2n1CC(N)=O
→ 94, 99, ·, 2
Cc1sc2ncn(CC(=O)Nc3ccc(F)cc3F)c(=O)c2c1S(=O)(=O)N1CCC(C)CC1
→ 85, 87, 102, -26
O=C(CN(Cc1ccccc1Cl)C(=O)c1ccc(CN2CCOCC2)o1)NCc1ccccc1
→ 84, 74, 105, 14
Cc1ccc2nc(NCc3ccccc3)[nH]c2c1
→ 105, 38, 97, ·
COC(=O)c1ccccc1NC(=O)c1c(C)oc2ncn(C)c(=O)c12
→ 110, 86, 95, -32
Cc1sc2ncnc(Cl)c2c1C
→ 112, 94, ·, 11
CC1Cc2ccccc2N1C(=O)CSc1nc2scc(-c3ccco3)c2c(=O)n1-c1ccccc1 (stereo not given)
→ 78, 96, ·, -11
Cc1cc(=S)cc(C)n1C
→ 91, 83, 104, -30
Cc1cccc(C(=O)Nc2nc3nc(-c4ccccc4)cc(=O)n3[nH]2)c1
→ 96, 96, 100, 5
CC1CC(C)(C)NC(=S)N1CCCC(=O)Nc1nc2ccccc2s1 (stereo not given)
→ 113, 94, 99, ·
Cc1nn(-c2ccccc2)c2c1C(c1ccc(-c3ccc(S(=O)(=O)N4CCOCC4)cc3)o1)C1=C(CC(C)(C)CC1=O)N2 (stereo not given)
→ 107, 92, ·, -10
N#CCNC(=O)c1ccc(Cl)cc1
→ 100, 103, 108, -5
COCCn1nnnc1C(C(C)C)N1CCN(C(=O)c2ccco2)CC1 (stereo not given)
→ 115, 89, 105, 0
COC(=O)C1C(=O)C(C(=O)c2ccccc2)C(=O)CC1(C)C (stereo not given)
→ 109, 103, 102, -8
N#CC1=C(N2CCOCC2)c2cc3c(n2C1=N)CCCC3
→ 106, 77, ·, -50
CCCNC(=O)c1ccc2c(c1)sc1nc(-c3ccc(C)cc3)cn12
→ 106, 98, 111, ·
O=C(NC1CC1)c1ccc2c(=O)nc3c(-c4cccc(F)c4)n[nH]n3c2c1
→ ·, ·, 107, -19
COc1ccc(OC)c(NC(=O)CSc2cn(CC(=O)N3CCOCC3)c3ccccc23)c1
→ 136, 95, 103, ·
CCCCC(C(=O)Nc1ccccc1)N1C(=O)c2ccccc2C1=O (stereo not given)
→ 82, 85, 103, ·
CN(C)C(=O)c1ccc2c(c1)C1C3CCC(C3)C1C(c1ccccc1)N2 (stereo not given)
→ 85, 50, 99, -9
Cc1cc2ncn(C(=O)c3c(-c4ccccc4Cl)noc3C)c2cc1C
→ 128, 90, 104, ·
CCNC(=O)N1CCc2cc(S(=O)(=O)NC(C)(C)CC)ccc21
→ ·, ·, 97, -22
Cc1nc(C23CC4CC(CC(C4)C2)C3)[nH]c(=O)c1Cl
→ 89, 83, 98, -37
COc1cc(C2C(C(=O)Nc3ccc(C)cc3C)=C(C)Nc3nc4ccccc4n32)cc(OC)c1OC (stereo not given)
→ 101, 91, 98, -4
CCOC(=O)CC1C(=O)NCCN1C(=O)OC(C)(C)C (stereo not given)
→ 72, 81, 99, -23
COC(=O)c1csc(N)n1
→ 115, 86, 104, -6
O=C(OCc1ncc(-c2ccccc2)o1)c1ccccc1C(=O)c1ccc2c(c1)OCCO2
→ 109, 96, ·, -2
Cc1oc2ncnc(N3CCCC(C(=O)N4CCC(C)CC4)C3)c2c1C (stereo not given)
→ ·, ·, 101, -22
CCOc1ccccc1NC(=O)NCCN1CCCc2ccccc21
→ 86, 92, 106, -9
Cc1ccc(NC(=O)CCSC2=NCCS2)cc1
→ 91, 77, 102, 20

Molecules from the list above with two or more sulfur atoms (four):
Every second line gives: Sa growth inh, Sa growth inh second temp, GIV Gai3 FP, HCMV UL50-53 inh
Cc1sc2ncn(CC(=O)Nc3ccc(F)cc3F)c(=O)c2c1S(=O)(=O)N1CCC(C)CC1
→ 85, 87, 102, -26
CC1Cc2ccccc2N1C(=O)CSc1nc2scc(-c3ccco3)c2c(=O)n1-c1ccccc1 (stereo not given)
→ 78, 96, ·, -11
CC1CC(C)(C)NC(=S)N1CCCC(=O)Nc1nc2ccccc2s1 (stereo not given)
→ 113, 94, 99, ·
Cc1ccc(NC(=O)CCSC2=NCCS2)cc1
→ 91, 77, 102, 20

(further entries)
Every second line gives: Sa growth inh, Sa growth inh second temp, GIV Gai3 FP, HCMV UL50-53 inh
CC(C)NC(=O)CSc1nnc(-c2cccnc2)o1
→ 112, 103, 115&102, 25&-15
NC(=O)c1nn(CC(=O)N2CCCSc3ccccc32)c(=O)c2ccccc12
→ 97, 87, ·, 5
Cc1c(C(=O)N(C)C)sc2nc(SCC(=O)NCc3ccco3)n(CCc3ccccc3)c(=O)c12
→ 119, 83, 96, -9
CCN(CC)CC(=O)Nc1ccccc1-c1nc2ccccc2[nH]c1=O
→ 103, 91, 106, -95
Cc1cc(C#N)c(C)n1CCCn1ccnc1
→ 89, 94, ·, -8
CCOC(=O)N1CCC(n2c(SCC(=O)NCc3ccco3)nc3ccsc3c2=O)CC1
→ 88, 81, 101, -2
CCCOc1ccc(C2C(=O)N(C3CCCCC3)CC(=O)N2C2CCCCC2)cc1OC (stereo not given)
→ 100, 93, 102, ·
CCOC(=O)c1c(-c2ccc(OC)c(OC)c2)csc1NC(=O)c1ccc(F)cc1
→ 103, 90, 105, -25
C=CCSc1nnc(Cn2cnc3ccccc32)n1C
→ 104, 92, 101, -10
CCS(=O)(=O)N1CCc2cc(C(=O)COC(=O)c3ccc(NC(=O)CC#N)cc3)ccc21
→ 92, 86, ·, -12
CC(C)Oc1ccc(CN2C(=O)c3cc4sccc4n3CC2(C)C(=O)NC2CCCC2)cc1 (stereo not given)
→ ·, ·, 97, -2
CC(O)Cn1c(=N)n(C)c2ccccc21 (stereo not given)
→ 90, 92, 101, ·
COc1ccc(-c2[nH]c(-c3ccc(O)cc3)nc2-c2ccccc2)cc1
→ 70, 60, 104, 5
O=C(c1ccc2c(c1)OCCO2)N(Cc1cccnc1)c1nc2ccc(F)cc2s1
→ 88, 89, 100&98, ·
CNS(=O)(=O)c1cc(OC)ccc1OC
→ 92, 90, 107, ·
CCn1c(=O)c(N2CCC(C(=O)O)CC2)nc2ccccc21
→ ·, ·, 103, -10
COc1ccc(C2C3=C(CC(C)(C)CC3=O)Nc3c2c(=O)[nH]c(=O)n3Cc2ccccc2)cc1 (stereo not given)
→ 82, 73, 155, -10
O=c1c2c3c(sc2ncn1CCc1ccccc1)CCCC3
→ 105, 84, ·, -15
Cc1cccc(C)c1OC(=O)CSc1nnc(CNC(=O)c2ccccc2)o1
→ 93, 98, 101, 6
CC(C)c1noc(-c2cccc(OCC(=O)Nc3nccs3)c2)n1
→ ·, ·, 100, -12
CN(C)CCn1c(-c2ccccc2)cc(=S)c2c1CCCC2
→ 91, 87, 101, -26
CC1NC(=O)C(C#N)=C(SCc2ccccc2)S1 (stereo not given)
→ 94, 71, 96, ·
O=c1[nH]c2ccc(NCc3ccc(-c4ccccc4F)o3)cc2[nH]1
→ 108, 100, 104, -4
CC(=O)Nc1cccc(C(=O)N(CCC(=O)N2CCNCC2)CC2CCCO2)c1 (stereo not given)
→ ·, ·, 99, -11
O=C(COc1ccc(Cl)cc1)OCCOc1ccccc1F
→ 113, 83, ·, -26
Cc1cc2c(o1)-c1c(oc3ccccc13)CCC2(C)c1ccccc1 (stereo not given)
→ 104, 93, ·, -7
CC1(C)CC(=O)C(Sc2nnc(-c3ccc(O)cc3)n2CC2CCCO2)C(=O)C1 (stereo not given)
→ 92, 97, 94, -36
COc1ccc(OC(=O)CSc2nc(-c3ccc(OC)cc3)nc3cc(=O)[nH]n23)cc1
→ ·, ·, 106, 8
CNS(=O)(=O)c1cn(CC(=O)Nc2cccc(Cl)c2)cc1S(=O)(=O)NC
→ ·, ·, 103, -4
O=c1[nH]c2ccc(S(=O)(=O)Nc3ccc(O)cc3)cc2[nH]1
→ 98, 85, 102, ·
COc1cc(NC(=O)C(Sc2nc(C)cc(C)c2C#N)c2ccccc2)c(OC)cc1Cl (stereo not given)
→ 112, 100, 102, 10
CC(=O)NC12CCC3CC(CC(C3)C1)C2
→ 87, 86, 97, -21
O=C1NCCCN1Cc1ccc(F)cc1Cl
→ 84, 87, 98, ·
CSc1nc(NC(C)C)c(C#N)c(-c2ccccc2)n1
→ ·, ·, 97, 29*
O=C(NCc1ccccc1Br)c1cnc2sc(N3CCCCCC3)nn2c1=O
→ 100, 92, 101, ·
O=C(c1ccc(S(=O)(=O)NCc2ccco2)cc1)N1CCN(c2ccc(F)cc2)CC1
→ 94, 87, ·, 9
CCCc1nc2ccccc2n1CC(O)COc1ccc(OC)cc1 (stereo not given)
→ ·, ·, 108, -15
COc1cc(O)c(C(=O)Cc2cc3ccccc3o2)cc1C(C)C
→ 96, 89, ·, -31
CNC(=O)c1ccccc1Sc1ccc(Cl)cc1C(=O)O
→ 104, 90, 94, -15
COc1ccc(S(=O)(=O)c2c(C)cc(C)n(CC(=O)Nc3ccc(Br)cc3)c2=O)cc1
→ ·, ·, 102, -6
COc1ccc(C(=O)Nc2ccc3oc(-c4ccccc4)nc3c2)cc1Br
→ ·, ·, 105, -12
O=C(NC1CCCc2ccccc21)c1ccc(Nc2ccnc(-c3cccc(F)c3)n2)cc1 (stereo not given)
→ ·, ·, 107, -7
COc1ccc(NC(=O)COc2ccc(Cl)c(C)c2)cn1
→ 82, 89, ·, -34
CCN(CC)S(=O)(=O)c1ccc2c(c1)nc(CN(C)C(=O)Nc1ccc(C)cc1Cl)n2C
→ ·, ·, 102, -11
COc1ccc(N2CC(NC(=O)CCc3ccccc3)CC2=O)cc1OC (stereo not given)
→ 116, 89, 102, ·
CC(=O)Nc1ccc(S(=O)(=O)CCC(=O)O)cc1
→ 96, 92, ·, 5
CC(=O)N1CCc2cc(S(=O)(=O)N3CCc4ccccc4C3CN3C(=O)c4ccccc4C3=O)ccc21 (stereo not given)
→ 98, 91, 105, -42
O=C(CCS(=O)(=O)c1cc(Br)cc2c1N(C(=O)C1CC1)CC2)N1CCCCC1
→ 99, 87, 101, -23
C=CCc1cccc(C)c1OCCCN1CCC(C)CC1
→ 106, 85, 96, ·
CCOc1ccc2c(c1)NC(c1ccc(OCC)c(OCC)c1)=NC(c1ccc(F)cc1)=N2
→ 97, 91, 99, -16

The list continues.
Every second line gives: Sa growth inh, Sa growth inh second temp, GIV Gai3 FP, HCMV UL50-53 inh
COC(=O)C1=CN(C(C)C)C=C(C(=O)OC)C1c1ccc(OC)cc1
→ 104, 95, 100, -10
Cc1nc2ccc(Cl)cc2nc(C)/c1=N\O
→ 75, 52, ·, -31
O=C(COc1ncnc2sc(-c3ccccc3)cc12)N1CCNC1=O
→ 78, 94, ·, -10
O=C1NC2(CCOc3ccccc32)C(=O)N1CC1NS(=O)(=O)N=C2CCCCCN21 (stereo not given)
→ 68, 85, ·, -16
COc1ncnc2oc(C)c(C(=O)Nc3cccc(Cl)c3)c12
→ 98, 91, 103, -27
O=S(=O)(c1ccc2c(c1)CCO2)N1CCC2(CC1)OCCO2
→ 101, 94, 106, -2
CCOC(=O)c1cc(-c2ccccc2)n(CCCC(=O)Nc2ccc(C)c(Cl)c2)c1C
→ 129, 90, 104, ·
Cc1cc2c(NC3CCCC3)ncnc2s1
→ 87, 70, 108, ·
Cc1nn2c(NCC3CCCO3)cc(C(C)(C)C)nc2c1-c1ccc(F)cc1 (stereo not given)
→ ·, ·, 98, -19
CCNC(=O)Oc1noc2ccc(C)cc12
→ 93, 85, 105, -31
NC(=O)c1cc2c(ccc3ccccc32)oc1=Nc1ccc(Br)cc1
→ ·, ·, 100, -13
N#CCn1c(=O)c2c(ncn2Cc2ccccc2)n(Cc2ccccc2)c1=O
→ 109, 91, ·, -13
O=C(NC1(C(=O)Nc2ccccc2)CCCCC1)c1ccc(-n2cnnn2)cc1
→ 87, 82, 102, -29
O=C(c1ccc(C(F)(F)F)cc1)N1CCCCC1
→ 87, 95, ·, 6
C[n+]1cn(CC(=O)Nc2ccccc2)c2ccccc21
→ 90, 91, ·, -9
CN(C)S(=O)(=O)c1ccc(NC(=O)Nc2ccccc2)cc1
→ 85, 62, 106, 2
N#Cc1ccc(C2N=C(c3ccccc3)NO2)cc1 (stereo not given)
→ 110, 84, ·, -39
CCC(=O)c1ccc(N2CCN(C(=O)c3ccco3)CC2)c(F)c1
→ 99, 37, 101, ·
Cc1nn(-c2ccccc2)c(C)c1/C=N/n1cnnc1
→ 107, 93, 103, 2
Cc1ccc(C)c(OCC(=O)OCn2nnc3ccccc3c2=O)c1
→ 84, 97, ·, -19
Cc1ccc(CN)n1C
→ 80, 92, ·, -19
Cc1nn(-c2ccccc2)c2ncc(C(=O)N3CCN(C)CC3)c(Cl)c12
→ 96, 89, 101, -22
COc1ccc(C)cc1NC(=O)C1CCN(S(=O)(=O)c2c(C)noc2/C=C/c2ccco2)CC1
→ 106, 89, 106, -18
O=C(CSc1cn(Cc2ccccc2Cl)c2ccccc12)N1CCCC1
→ 92, 81, 100, ·
Cc1cc(F)ccc1NC(=O)Cc1ccc(S(=O)(=O)N2CCCC2)s1
→ 102, 94, ·, -9
O=C(NC1CCC(CC2CCC(NC(=O)c3cccnc3)CC2)CC1)c1cccnc1 (stereo not given)
→ 85, 90, ·, -5
CC1(C(=O)NC2CCCCC2)CCC(=O)N1Cc1ccc(F)cc1 (stereo not given)
→ ·, ·, 103, -33

Some entries already given, reduced to GIV Gai3 FP, Sa growth inh and Sa growth inh second temp:
canonical_smiles	GIV Gai3 FP	Sa growth inh	Sa growth inh second temp
O=C(NCc1ccccc1Br)c1cnc2sc(N3CCCCCC3)nn2c1=O	101	100	92
COc1cc(C2C(C(=O)Nc3ccc(C)cc3C)=C(C)Nc3nc4ccccc4n32)cc(OC)c1OC (stereo not given)	98	101	91
N#CCNC(=O)c1ccc(Cl)cc1	108	100	103

From PubChem
